# Assay outcomes from PubChem.
# Sfp PPTase inh = Sfp phosphopantetheinyl transferase inhibition; Q9F4F7; Biochemical Sfp PPTase activity, qHTS; Potency, µM, inactives show max response, negative = inhibition, most hits filed as inhibitors; 310,000 tested, 3.5% active; AID 1490; active = well fitted inhibition curve with a large enough effect; inconclusive = small, poorly fitted or top-dose-only effect, or another doubt; inactive = no such curve, though single readings can be large or run the other way;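 also: the enzyme is Sfp with the accession as filed and its product quenches rhodamine fluorescence; potency is read from the fitted curve at half-maximal effect; 0% = enzyme reaction without inhibitor and -100% = no enzyme wells; top concentration of the series not given in the record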
#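 Compounds were incubated with enzyme (final 15 nM) for 15 min at room temperature before substrate addition started the reaction. Fluorescence at 525 nm excitation, 598 nm emission was recorded immediately and after 30 minutes.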
# PINK1 modulator = PINK1 expression modulation; PINK1 immunofluorescence, high-content cytometry, 24 h; Potency, µM (top dose mostly 76.6 µM), without a hit: at the top dose activation (PINK1 increase), most hits filed as activators; 410,000 tested, 0.2% active; active = well fitted activation curve with a large enough effect; inconclusive = small, poorly fitted or top-dose-only effect; inactive = flat fitted curve, though single readings scatter; cell line not stated here;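 also: potency is read from the fitted curve at half-maximal effect; % of control where 0% means no effect; nearly all actives have a fitted effect of over 65% in size; a mitochondrial uncoupler was the plate control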
#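 Stable cell line treated 24 h with compounds at 5 concentrations (CCCP controls), then fixed and immunostained for PINK1 plus nuclear and cell stains; PINK1 immunofluorescence quantified by laser-scanning microplate cytometry.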
# TRPML1 ag = activates the human TRPML1 channel; Q9GZU1; TRPML1-expressing cells, Ca2+ dye fluorescence, FDSS; host cell line not named in the record; reference of the full effect not given here; activation, % (test concentration not listed); 410,000 tested, 0.12% active; AID 624414; in the data active = activation above about 50%; inconclusive = about 30% to 50%; inactive = below about 30%; also: 0% is about no effect; the text of the record puts the active cut at 80%
#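 Kinetic FDSS Ca2+ read in Tet-induced TRPML1-DL cells (ABD Ca8 dye plus quencher, 45-90 min RT loading): baseline, then compound, then 110 s agonist window; EC80 agonist 54-4 at 4uM final added afterwards for a 110 s antagonist window.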
# ClpP mod = qHTS Assay for Activators of ClpP | purified B. subtilis ClpP, FRET peptide cleavage, 20 min | 340,000 tested, 1.9% active | ATP-dependent Clp protease proteolytic subunit (Bacillus subtilis (strain 168)), P80244 | AID 651965, 2013 | Potency, µM (highest dose often 57.5 µM), for inactives: at the top dose activity change, negative = active; active = well fitted falling curve with a large enough effect; inconclusive = small, poorly fitted or top-dose-only effect; inactive = no such curve, though single readings can be large or run the other way; also: potency is read from the fitted curve at half-maximal effect; the source files actives as falling curves though it sought activators and does not explain the sign; nearly all actives have a fitted effect of over 65% in size; many hits overshoot -100%
# Target sequence (P80244 whole entry, looked up): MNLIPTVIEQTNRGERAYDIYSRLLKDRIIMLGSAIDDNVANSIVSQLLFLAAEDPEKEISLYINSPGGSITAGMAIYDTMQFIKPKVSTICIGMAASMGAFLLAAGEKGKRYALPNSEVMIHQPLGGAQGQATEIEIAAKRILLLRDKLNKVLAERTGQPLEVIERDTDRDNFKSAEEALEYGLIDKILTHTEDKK
#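 Buffer: 100 mM Tris/HCl pH8, 100 mM KCl, 0.05% low protease BSA, 2.5% glycerol, 0.01% Tween-20. ClpP 10 microg/mL final; 20 min RT; delta FRET normalized to ADEP and DMSO controls.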
# Menin MLL FP FL = inhibitors of human menin-MLL interaction, wild-type MLL peptide | 290,000 tested, under 10 active | FP activity change, % at 61.4 µM | Fluorescence polarization, fluorescein-MLL peptide displacement from menin; inconclusive = falling polarisation curve, or a change in total fluorescence; inactive = total fluorescence flat and polarisation flat or rising; no compound was filed as active; the % refers to the polarisation; negative = inhibition;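 also: % of control where 0% means no effect; inhibitors lower the polarisation; unlabelled MLL peptide was the positive control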
# TRPML1 blocker = human mucolipin-1 channel inhibition; Q9GZU1; TRPML1-inducible cells, Ca2+ dye fluorescence, FDSS; active compounds read low; inhibition of EC80 agonist-evoked calcium signal; activity change, negative = inhibition, % (concentration not given with the values); 390,000 tested, 0.02% active; in the data active means activity change below about -50%; inconclusive means about -30% to -50%; inactive means above about -30%;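 also: stimulus is agonist 54-4 at its EC80 concentration; % is scaled to controls: 0 for no effect and ±100 for the full control effect; the text of the record puts the active cut at -80%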
#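 TRPML1-DL cells, Tet-induced overnight (~16 h, 37 °C) at 1,500 cells/well, were loaded with Ca8 no-wash dye plus quencher for 45-90 min at room temperature. Compounds were pinned during FDSS kinetic reading; agonist 54-4 at EC80 (4 uM final) then added.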
# TRPV1 PAM = human TRPV1 potentiation. Q8NER1. TRPV1-expressing cells, Fluo-8 calcium influx, capsaicin EC20 potentiation; host cell line not named in the record; control for the full effect not named in the record. potentiation, % at 8.33 µM. 320,000 tested, 0.02% active; active means potentiation above 80%; inconclusive means 30% to 80%; inactive means below 30%; also: 0% is about no effect
# Target sequence (Q8NER1 whole entry, looked up): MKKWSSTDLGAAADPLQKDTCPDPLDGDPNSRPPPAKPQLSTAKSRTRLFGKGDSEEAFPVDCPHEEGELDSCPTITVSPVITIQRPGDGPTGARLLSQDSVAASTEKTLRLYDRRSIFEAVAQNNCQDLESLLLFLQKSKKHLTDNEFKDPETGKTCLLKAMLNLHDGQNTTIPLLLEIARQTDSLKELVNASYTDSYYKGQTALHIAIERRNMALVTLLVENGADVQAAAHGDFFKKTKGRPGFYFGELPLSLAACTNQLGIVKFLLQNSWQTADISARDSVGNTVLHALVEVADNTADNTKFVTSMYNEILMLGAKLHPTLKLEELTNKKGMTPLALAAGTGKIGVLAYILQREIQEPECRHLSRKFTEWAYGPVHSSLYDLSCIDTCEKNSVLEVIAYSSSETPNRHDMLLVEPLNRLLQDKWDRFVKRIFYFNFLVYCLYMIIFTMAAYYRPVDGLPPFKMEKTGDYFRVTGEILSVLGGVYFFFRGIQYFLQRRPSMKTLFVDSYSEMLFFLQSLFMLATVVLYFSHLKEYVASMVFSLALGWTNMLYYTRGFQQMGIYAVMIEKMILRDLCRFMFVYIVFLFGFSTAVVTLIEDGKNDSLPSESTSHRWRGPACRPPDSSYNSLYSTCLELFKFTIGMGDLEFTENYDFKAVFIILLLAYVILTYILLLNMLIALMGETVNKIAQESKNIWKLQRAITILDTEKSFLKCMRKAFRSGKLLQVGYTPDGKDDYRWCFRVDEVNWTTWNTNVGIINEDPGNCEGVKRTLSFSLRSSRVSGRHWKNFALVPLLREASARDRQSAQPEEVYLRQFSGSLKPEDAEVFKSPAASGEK
#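 TRPV1-expressing cells were cultured overnight at 35.5C and loaded with Fluo-8 calcium dye for 40 to 90 min at room temperature. After a 10 s baseline, compound was added and calcium influx was read kinetically for 3 min (ex 480/em 520 nm).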
# Starred values were filed as active, the others as inactive; ? = inconclusive; . = no result given; & = joins results of further samples; [ ] = dose if it differs, or a comment.
SMILES,Sfp PPTase inh,PINK1 modulator,TRPML1 ag,ClpP mod,Menin MLL FP FL,TRPML1 blocker,TRPV1 PAM
COc1ccccc1CNC(=O)c1cc2c(s1)CS(=O)(=O)C2,3.1%,0.5%[38.3 µM],-0.4,-0.5%,2.7,-19.5,-15.2
NC(=O)CSc1nnnn1-c1ccccc1Cl,18.4%,-0.1%,-0.3,.,-0.6,-6.7,6.7
COc1ccc(Br)cc1CNC(=O)c1ccc2c(c1)N(C)CCS2,-5.7%,3.5%,2.0,4.4%,-4.1,7.6,18.3
O=C(NCc1ccccc1)N1CCN(CCO)CC1,.,-3.3%,1.7,0.9%,.,0.8,.
CCOC(=O)C1(C)CCCN1C(=O)c1csnn1 (centres undefined),.,2.3%,-0.5,0.4%,.,.,.
O=C(Cn1nnc2ccccc2c1=O)NCc1ccc(Cl)cc1,11.6%,1.4%,-1.4,-0.9%,-3.4,-13.7,20.2
CCCCC1CCc2[nH]nc(C(=O)O)c2C1 (centres undefined),.,-1.5%,-0.8,-0.9%,.,-19.7,25.4
CC(C)(C)NC(=O)NC(=O)COC(=O)C1c2ccccc2Oc2ccccc21,12.3%,5.8%,1.9,.,.,-1.9,5.3
CCOC(=O)CN1CC23C=CC(O2)C(C(=O)Nc2ccc(F)cc2)C3C1=O (centres undefined),11.5%,-1.1%,0.2,-0.2%,2.0,11.1,-2.7
C=C(C)COc1ccc(C2NC(=O)c3ccccc3O2)cc1OCC (centres undefined),11.5%,0.6%,0.6,0.4%,0.4,-0.6,-55.8
O=S(=O)(Nc1cccc(-n2cnnn2)c1)c1cc(Cl)ccc1Cl,12.7%,2.9%,0.0,0.0%,1.8,-8.4,8.9
CC(C)NC(=O)COC(=O)c1ccc(S(=O)(=O)N2CCCC2)cc1,16.1%,-2.6%,1.2,.,-0.1,5.3,1.1
O=C(Nc1cccc2c1CCCC2)c1cc(C2CCCCN2S(=O)(=O)c2cccs2)on1 (centres undefined),.,-1.0%,-0.6,-9.0%,.,.,.
COc1ccc(/C=C/C(=O)c2cc3c(cc2N)OCO3)cc1,?,2.5%,0.6,.,-5.3,-9.0,4.7
Cc1ccccc1-n1c(=O)cc(NCc2ccc3c(c2)OCO3)[nH]c1=O,14.0%,-13.8%[38.3 µM],0.6,1.0%,16.1,0.8,5.6
COc1ccc(OC)c(NC(=O)COC(=O)/C=C/c2c(C)nn(C3CCS(=O)(=O)C3)c2Cl)c1 (centres undefined),-3.7%,3.3%,-0.7,-7.6%,?,47.4,-5.6
Cc1ccc(C(=O)OCC(=O)Nc2ccc(C)c(S(=O)(=O)N3CCCCC3)c2)o1,.,0.5%,0.9,-1.1%,.,-3.2,.
C[C@H]1[C@H](C)CC[C@]2(C)CC[C@]3(C)C(=CC(=O)C4[C@@]5(C)CC[C@H](O)C(C)(C)C5CC[C@]43C)[C@H]12 (some centres undefined),.,1.0%,2.4,-1.8%,.,50.6,0.4
Cc1cccc(C)c1-n1nnnc1C1(C)CCC(=O)N1Cc1cccs1 (centres undefined),.,1.5%,-0.2,-1.2%,.,.,.
CCN(C(=O)CSc1nc(-c2cccs2)nc2ccccc12)C1CCS(=O)(=O)C1 (centres undefined),.,-0.5%,0.3,-11.8%,.,-1.6,6.1
CC(=O)c1c(C)nn(C(=O)N2CCOCC2)c1C,8.9%,0.3%,-0.3,3.8%,3.5,-13.8,-6.1
O=c1/c(=C/c2ccccn2)sc2n1CN(c1ccccc1)CN=2,-0.2%,-1.8%,-1.2,-0.2%,-2.4,3.6,2.4
CN(CC(=O)NCC1COc2ccccc2O1)S(=O)(=O)c1ccc(Cl)cc1 (centres undefined),.,-3.8%,1.0,-5.0%,.,26.2,.
Cc1ccc(C)c(Cn2nnc3c(=O)[nH]c(C4CCCN(S(=O)(=O)Cc5ccccc5)C4)nc32)c1 (centres undefined),-12.3%,1.4%,0.5,.,.,11.4,-2.8
O=C1COC(c2ccccc2)C2CCCCN12 (centres undefined),-7.0%,5.4%,-0.3,1.1%,3.2,30.5,-15.7
CCCCNS(=O)(=O)CCNCc1ccccc1OC,.,-0.2%,-0.9,-0.6%,.,-6.0,.
O=C1CCCC(O)=C1N=Nc1cccc(C(=O)O)c1,-22.8%,-1.4%,-0.2,.,-0.2,1.5,1.7
Cc1ccc(C(=O)NCCn2ccc3ccccc32)cc1[N+](=O)[O-],4.4%,13.5%,0.4,-0.2%,-4.8,-6.2,-21.3
O=C(NCCO)OC1CC2CC1[C@H]1CCCCN1C2=O (some centres undefined),.,-0.2%,-0.4,1.8%,.,.,.
COc1ccc(N2CCOCC2)c(NC(=O)COc2cccc(C)c2)c1,8.7%,3.1%,2.3,4.0%,-5.4,8.8,1.9
Cc1cccc(C(=O)OCc2cc(=O)oc3c(C)c(C)ccc23)c1O,12.7%,0.2%,0.6,.,-1.6,3.3,-8.1
COc1ccc(OC)c(N(CC(=O)Nc2ccccc2C(=O)NCc2ccco2)S(C)(=O)=O)c1,7.0%,4.4%[38.3 µM],0.3,-6.2%,0.6,-0.2,11.7
COc1cc(/C=N/NC(=O)CC#N)cc(Br)c1O,-0.2%,0.1%,-0.2,.,8.0,8.9,-2.9
CCOC(=O)c1c(NC(=O)C2CCCO2)sc(C(=O)OC(C)(C)C)c1C (centres undefined),44.7µM*,2.3%,0.0,-3.8%,-1.7,7.7,3.3
O=S(=O)(c1ccccc1)c1nc(-c2cccs2)oc1NCCCn1ccnc1,-5.7%,6.2%,0.3,4.3%,2.0,14.0,?
CC(C)(C)OC(=O)N1CCC(N2CCN(Cc3ccccc3)C(=O)C2=O)CC1,.,1.1%,0.7,0.5%,.,-24.8,.
COc1ccc(OC)c(C(=O)c2ccc([N+](=O)[O-])cc2)c1,.,0.6%,1.0,.,.,-3.5,.
CC(C)Oc1nc(-c2ccccc2O)nc2ccccc12,-6.9%,3.8%[38.3 µM],-0.4,-2.4%,6.1,54.7,4.3
COc1ccc(NC(=O)C2(S(=O)(=O)c3ccc(C)cc3)CC2)c(OC)c1,.,1.9%,5.3,1.3%,.,15.2,.
COc1ccc2cc3c(N)nn(C(=O)c4ccc(F)cc4)c3nc2c1,-14.5%,-1.4%,0.9,-2.6%,1.2,3.3,-10.3
O=C(c1cccc([N+](=O)[O-])c1)N1CC2C3C=CC(C3)C2C1 (centres undefined),13.5%,0.2%,-0.4,.,0.8,-6.6,-2.0
FC(F)Oc1ccc(/C=N/c2c(-c3ccc(OC(F)F)cc3)nc3n2CCS3)cc1,6.3%,3.4%,2.2,2.6%,2.9,-8.6,20.4
COc1ccc(NC2=CC(c3cccc(OC)c3)N(c3ccc(OC)cc3)C2=O)cc1 (centres undefined),17.5%,2.3%,-0.5,-26.1%,3.8,1.9,-0.9
Cc1nc2sccc2c(=O)n1-c1cccc(Cl)c1,8.5%,-0.5%,0.6,1.7%,3.7,2.8,9.3
CSc1cccc(NC(=O)C2CCCN(S(=O)(=O)c3cnc[nH]3)C2)c1 (centres undefined),19.0%,2.5%,1.3,-2.4%,0.0,-7.7,-29.7
Clc1ccc(C2CC(c3cccs3)n3ncnc3N2)cc1Cl (centres undefined),1.5%,3.5%,5.2,-1.7%,1.4,-4.0,?
N#C/C(=C/c1ccccc1Cl)c1nc(-c2cc3ccccc3oc2=O)cs1,.,2.2%,2.4,-4.3%,.,-13.8,.
N#Cc1cccc(-c2nc3cnc(N4CCOCC4)nc3n(C[C@H]3CCCO3)c2=O)c1,15.3%,1.1%,.,.,3.3,.,.
COc1cccc(OC)c1C(=O)NC(=S)NNC(=O)[C@H]1C[C@@H]1c1ccccc1,36.0%[activator],-3.5%,1.2,-0.2%,4.5,19.0,-1.4
COc1cccc(NC(=O)CCN2C(=O)c3ccccc3S2(=O)=O)c1,1.7%,7.1%[38.3 µM],0.0,-1.0%,1.7,-8.4,15.7
O=C1CCC[C@@H]2Cc3nc4ccc(O)cc4cc3[C@@H]3CCN1[C@H]23,.,1.1%,-0.6&-0.4,-3.4%&-6.8%,.,-4.4,.
COc1ccc(N2CCN(C(=O)CCNC(=O)Cn3ccc4ccccc4c3=O)CC2)cc1,8.0%,1.1%,-0.7,-15.2%,-3.2,-13.3,-6.5
CCC(C)NCCOCCSc1ccc(Cl)cc1 (centres undefined),-2.3%,-2.0%,-0.2,-1.4%,2.9,9.2,3.9
CC(C)(C)C1CCC(=O)N(CCC#N)CC1 (centres undefined),18.3%,0.0%,-0.4&0.3,0.8%&-0.8%,-0.1,24.5,-14.8
Cn1nc(C(=O)OCc2ccccc2F)c2ccccc2c1=O,-4.4%,2.3%,0.1,.,-0.1,-4.0,6.2
Cn1nc(C(=O)Nc2cccc(S(N)(=O)=O)c2)c2ccccc2c1=O,-2.1%,1.2%,0.8,.,4.7,-5.3,-7.7
CNC(=O)c1ccc2nc(-c3cccc(C)c3)c(-c3cccc(C)c3)nc2c1,.,1.2%,-1.0,4.2%,.,.,.
CS(=O)(=O)N1CCC2(CCCN(Cc3ccccc3)C2)CC1,32.2%[activator],0.5%,.,.,-3.3,.,.
NNC(=O)CNC(c1ccccc1)c1cc(Br)ccc1NC(=O)c1ccc(Br)cc1 (centres undefined),3.6%,-0.5%,1.0,?,-3.1,-6.8,-4.4
CCOc1cc(C(=O)N2CCN(c3ccccn3)CC2)cc(OCC)c1OCC,-3.1%,1.6%,-0.9,-6.7%,-0.7,18.4,-4.6

# The listing continues:
SMILES,Sfp PPTase inh,PINK1 modulator,TRPML1 ag,ClpP mod,Menin MLL FP FL,TRPML1 blocker,TRPV1 PAM
Cc1nn(-c2ccc3nnc(Br)n3n2)c(C)c1Br,7.8%,.,.,.,0.5,.,1.8
COCc1c(C(=O)N2CCN(Cc3ccc4c(c3)OCO4)CC2)oc2ccccc12,.,-0.9%,1.8,0.8%,.,25.7,-9.4
O=C1C2C3c4ccccc4C(c4ccccc43)[C@@H]2C(=O)N1c1nc(-c2ccccc2)cs1 (some centres undefined),8.0%,1.4%,0.7,-2.3%,0.5,4.0,25.0
CCOC(=O)C1=CCN(S(=O)(=O)c2ccccc2C)C1c1ccc(Br)cc1 (centres undefined),.,0.7%,5.1,-0.4%,.,29.7,.
